WNV NS2B-NS3 inh – blocks West Nile virus NS2B-NS3 protease activity | P06935 | AID 577 | WNV NS2B-NS3 protease, fluorogenic substrate Ex360/Em465; active compounds read low | z-score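 (tested at a level between 10 and 100 µM)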 | hit rate 0.18% among 65,000;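 active = z-score at -3 or under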;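 also: score is relative to mean and spread of the compound wells of a plate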
Target sequence (P06935 1371-1501 limits assumed): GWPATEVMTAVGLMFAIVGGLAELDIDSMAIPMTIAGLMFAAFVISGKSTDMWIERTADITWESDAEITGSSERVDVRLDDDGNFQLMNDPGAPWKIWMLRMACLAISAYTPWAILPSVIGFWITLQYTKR
Target sequence (P06935 1502-1679 limits assumed): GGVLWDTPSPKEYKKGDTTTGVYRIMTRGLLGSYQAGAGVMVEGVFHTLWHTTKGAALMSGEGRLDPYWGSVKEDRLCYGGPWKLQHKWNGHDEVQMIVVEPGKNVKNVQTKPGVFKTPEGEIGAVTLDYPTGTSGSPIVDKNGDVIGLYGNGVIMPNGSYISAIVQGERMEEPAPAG
MT1-MMP reporter – MT1-MMP gene expression reporter suppression – cell-based, luciferase reporter, luminescence (AID 618); MT1-MMP promoter luciferase reporter cells, luminescence; calls from a first round at 10 µM; hits with a dose series show EC50 in µM; hit rate 0.62% among 87,000;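 active = over half of the reporter light lost at 10 µM or EC50 under 50 µM; inactive = the rest and hits that failed the dose series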;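 also: actives suppress MT1-MMP promoter-driven transcription so potencies describe inhibitors; HT1080 fibrosarcoma cells; overnight exposure; toxic or luciferase-blocking compounds were not removed from the actives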
Hsc70 ATP site – Hsc70 inhibitors, probe displacement, primary screen, biochemical, fluorescence polarization (AID 568); Hsc70 fluorescence polarization, probe displacement; higher % means a stronger effect; strong numbers were not always called active; displacement, % at 20 µM; hits with a dose series show IC50 in µM; 83,000 tested, under 10 active;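 active = displacement above 50% without optical interference and an IC50 on retest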;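 also: ATPase domain with a fluorescein-tagged ATP probe; 0% = vehicle and 100% = excess ADP; read after one hour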
Starred values were filed as active, the others as inactive; i = inactive; . = not tested or not shown.

A first look (two entries):
SMILES	WNV NS2B-NS3 inh	MT1-MMP reporter	Hsc70 ATP site
CCN1CCN(C(=O)c2ccccc2N(Cc2ccccc2)S(=O)(=O)c2ccc(C)cc2)CC1	.	i	-5.7%
Cc1sc2nc(C)n(/N=C/c3ccccc3O)c(=O)c2c1C	.	i	4.1%

The list itself (from the top)
SMILES	WNV NS2B-NS3 inh	MT1-MMP reporter	Hsc70 ATP site
CCN1CCN(C(=O)c2ccccc2N(Cc2ccccc2)S(=O)(=O)c2ccc(C)cc2)CC1	.	i	-5.7%
Cc1sc2nc(C)n(/N=C/c3ccccc3O)c(=O)c2c1C	.	i	4.1%
CC(=O)Nc1sc(NC(=O)c2ccccc2)nc1-c1cccs1	-0.01	i	-1.0%
c1ccc(Cc2nnc(-c3ccccc3)o2)cc1	0.88	i	1.0%
CC(C)Oc1ccc(Cc2c(O)nc(NCCCN(C)C)[nH]c2=O)cc1	-0.76	i	4.9%
Cc1cccc(C(=O)N2CCN(c3ccc(C(F)(F)F)cn3)CC2)c1C	.	i	1.4%
CCOC(=O)c1ccc(NC(=O)CCc2nc(-c3ccccc3Cl)no2)cc1	0.61	i	0.8%
CC(=O)N[C@H]1C[C@@H]1c1ccccc1	-0.29	i	-3.5%
CCCc1cc(=O)n2c([nH]c3ccccc32)c1C#N	.	i	0.8%
Cc1nn(-c2ccccc2)c(C)c1CCC(=O)O	-0.69	i	2.4%
COc1ccc(-c2nc(C#N)c(N3CCOCC3)o2)cc1OC	0.88	i	4.7%
Cc1ccc(N2CCN(c3ccc(C)cc3)C(CC(=O)O)C2=O)cc1 (stereo unspecified)	0.01	i	0.1%
CCN(CC)S(=O)(=O)c1ccc(S(=O)(=O)N2CCCC2C(=O)O)cc1 (stereo unspecified)	.	i	8.0%
Fc1cc(F)c2nc(N3CCOCC3)sc2c1	0.21	i	2.6%
CCC(=O)Nc1sc(C(=O)OC)c(C)c1C(=O)OC	-0.04	i	-6.2%
CCN1C=C(Cc2cccs2)C2=C(C1)C(c1cccs1)C(C#N)=C(N)O2 (stereo unspecified)	0.11	i	-16.4%
C=CCSc1n[nH]c(-c2ccccc2)n1	.	i	3.5%
O=C(CS(=O)(=O)c1cn(Cc2ccccc2Cl)c2ccccc12)N1CCOCC1	.	i	-6.0%
CCOC(=O)C1CCN(CC(O)COc2ccc(C(C)=O)cc2)CC1 (stereo unspecified)	-0.05	i	2.5%
CC(C)(CN=C1NS(=O)(=O)c2ccccc21)CNC(=O)CN1C(=O)c2ccccc2C1=O	0.46	i	-1.7%
Cc1ccccc1-n1c(=O)cc(N2CCN(C(=O)c3ccco3)CC2)[nH]c1=O	0.19	i	-0.4%
Cc1ccc(C(=O)N(CN2CCCC2=O)c2ccccc2)cc1C	0.9	i	1.9%
CCOC(=O)c1cc2c(n(-c3ccccc3)c1=O)CC(C)(C)CC2=O	0.5	i	4.2%
COc1cc(/C=N\Nc2nc3ccccc3o2)cc(OC)c1OC	.	i	-6.6%
CC(=O)c1cccc(N(CC(=O)Nc2cccnc2)S(C)(=O)=O)c1	-0.79	i	-2.6%
CC(C)COc1ccc(C(=O)Nc2ccc(NC(=O)c3ccco3)c(Cl)c2)cc1	.	i	7.8%
COc1cc(NC(=O)c2cc3c(=O)n(C)c4ccccc4c3n2C)cc(OC)c1OC	-0.09	i	-1.8%
COc1ccccc1NC(=O)c1ccc(-c2ccc(Br)cc2)o1	.	i	5.4%
CN(CC(=O)N1CC(=O)N(CCc2ccccc2)C(=O)C1)S(=O)(=O)c1cccc2nsnc12	0.77	i	-0.2%
CCC(C)(C(=O)NC1CCCC1)N(C(=O)CNC(C)=O)c1ccc(C)cc1 (stereo unspecified)	0.77	i	3.1%
O=C(CC1SCCNC1=O)Nc1cccc(C(F)(F)F)c1 (stereo unspecified)	1.52	i	-5.3%
CCC(C)(C)n1nnnc1C(c1cc2cc3c(cc2[nH]c1=O)OCO3)N1CCCCC1 (stereo unspecified)	.	i	-0.5%
CCOC(=O)Cn1nc(-c2ccccc2)c2ccccc2c1=O	.	i	5.4%
CCOc1ccc(NC(=O)CSc2nnc(C)n2CCCOC)cc1	-0.85	i	-9.4%
CC(=O)Nc1cccc(NC(=O)CSc2nc(C)c(C)c(C)c2C#N)c1	0.36	i	-4.5%
Cc1onc(-c2ccccc2)c1C(=O)Nc1cccc(C#N)c1	0.98	i	-1.2%
Cc1onc(-c2ccccc2Cl)c1C(=O)Nc1ccc(S(=O)(=O)NCC2CCCO2)cc1 (stereo unspecified)	-1.88	i	-1.6%
COC(=O)C1=CN(C(C)C)C=C(C(=O)OC)C1c1cc(Br)c(OC)c(OC)c1	.	i	-2.6%
CCCN(CC1CC1)C(=O)CSc1ncnc2sc(C)c(C)c12	.	i	4.3%
CC1CCCCN1C(=O)Cn1nnc(-c2cccnc2)n1 (stereo unspecified)	-0.34	i	30.4%
Cc1cc(C(F)F)n2nc(C(=O)Nc3sc4c(c3C#N)CCC(C)C4)nc2n1 (stereo unspecified)	.	i	2.7%
Cc1nc2c(C(=O)N3CCCCC3)cnn2c(C)c1Cc1ccccc1F	0.99	i	2.6%
Cc1cc2nn(-c3ccccc3)nc2cc1NC(=O)c1cccs1	1.33	i	-3.2%
CCn1c(CCNC(=O)c2cccs2)nnc1SCC(=O)Nc1ccc(Cl)cc1	.	i	2.0%
CCOC(=O)c1ccc(N2C(=O)CC(C(=O)OC)=C2C)cc1	-0.72	i	4.8%

Look-ups from the entries so far.
Cc1cc(C(F)F)n2nc(C(=O)Nc3sc4c(c3C#N)CCC(C)C4)nc2n1 (stereo unspecified) – Hsc70 ATP site = 2.7%
Cc1onc(-c2ccccc2Cl)c1C(=O)Nc1ccc(S(=O)(=O)NCC2CCCO2)cc1 (stereo unspecified) – WNV NS2B-NS3 inh = -1.88
CC(=O)Nc1cccc(NC(=O)CSc2nc(C)c(C)c(C)c2C#N)c1 – WNV NS2B-NS3 inh = 0.36
CCCN(CC1CC1)C(=O)CSc1ncnc2sc(C)c(C)c12 – Hsc70 ATP site = 4.3%

(further entries)
SMILES	WNV NS2B-NS3 inh	MT1-MMP reporter	Hsc70 ATP site
O=C(Nc1cccc2ccccc12)C1CCN(C(=O)Cc2ccccc2)CC1	.	i	2.7%
COCC(C)N=Cc1c(O)[nH]c2ccccc12 (stereo unspecified)	-0.33	i	-3.9%
Cc1ccc(OCCC(=O)OCC(=O)N2c3ccccc3CC2C)cc1 (stereo unspecified)	0.58	i	-3.4%
Cc1ccnc(NC(=O)c2ccc(COc3ccc(Cl)cc3)o2)c1	.	i	6.4%
O=C1OCCN1CCN(CN1C(=O)CCC1=O)CN1C(=O)CCC1=O	-0.46	i	2.5%
CCOc1ccccc1N1CCN(C(=O)Nc2ccc(F)c(Cl)c2)CC1	-0.89	i	0.9%
O=C(O)CCC(=O)N1CC=C(c2ccccc2)CC1	.	i	-3.8%
Cc1cc(C(F)F)nn1CC(=O)N1CCSCC1	.	i	2.5%
CCOC(=O)c1c(C)n(C)c2c(C)cc(O)c(OC(=O)CC)c12	0.26	i	-1.3%
CN(C)C(=O)N1CCC(C(=O)NCc2ccccc2)CC1	-0.05	i	-1.0%
CC(=O)c1ccc(NC(=O)CSc2nnc(NC(=O)CN3CCOCC3)s2)cc1	0.77	i	-8.3%
CCCc1[nH]nc2c1C(c1cn[nH]c1-c1ccc(F)cc1)C(C#N)=C(N)O2 (stereo unspecified)	-0.56	i	3.7%
CCC(C)NC(=O)CCCc1ccccc1 (stereo unspecified)	.	i	4.6%
COC(=O)c1ccc(Cl)c(NC(=O)CN2CCN(C)CC2)c1	.	i	2.2%
O=C(Nc1ccccc1)N(Cc1ccccc1)Cc1ccccc1	.	i	-3.7%
CC1=C(SCCC#N)S/C(=C2\SC(C)=C(SCCC#N)S2)S1	1.02	i	2.9%
CC(=O)N1CCc2cc(S(=O)(=O)CCC(=O)NCc3ccc4c(c3)OCO4)ccc21	0.87	i	-4.9%
Cc1cc(=O)[nH]c(SCC(=O)c2ccc(C(C)C)cc2)n1	-1	i	-8.8%
c1ccc(Cn2nnnc2C(c2cccnc2)N2CCN(C3CCCCC3)CC2)cc1 (stereo unspecified)	0.5	i	6.0%
Oc1cccc(C(=S)N2CCN(Cc3ccccc3)CC2)c1	-1.43	i	11.1%
CSC1=NCCN1C(=O)c1ccc(S(=O)(=O)N2CCCC2)cc1	-0.82	i	1.0%
COc1ccccc1CN(C)C(=O)C1COc2ccccc2O1 (stereo unspecified)	-1.07	i	5.6%
Cc1cc(C)c(NC(=O)COc2ccccc2C(=O)Nc2ccc3c(c2)oc2ccccc23)c(C)c1	.	i	-2.6%
Cc1c(N(C(=O)c2cc(=O)[nH]c3ccccc23)C(C)C)c(=O)n(-c2ccccc2)n1C	0.93	i	2.2%
CC(=O)O/N=C(/C)c1ncc(C(F)(F)F)cc1N1CCOCC1	.	i	2.4%
O=C(CN1CCC(Cc2ccccc2)CC1)NC(=O)NCc1ccco1	-0.11	i	-5.0%
COCCCn1c(SCC(=O)OC2CCCCC2)nnc1-c1cccs1	-1.08	i	-4.2%
Cn1cc(SCC(=O)Nc2ccc3c(c2)OCO3)c2ccccc21	0.74	i	4.7%
Cc1cccc(C)c1N1C(=O)CC(N(O)c2ccccc2)C1=O (stereo unspecified)	-0.85	i	3.1%
Cc1nn(Cc2ccc(F)cc2)c(C)c1NC(=O)c1cc(-c2ccc3c(c2)OCO3)on1	1.08	i	8.5%
Cc1ccc(S(=O)(=O)NC2=NCN(C3CCN(Cc4ccccc4)CC3)CN2)cc1	-0.55	i	2.0%
COC(=O)CNC(=O)CN1C(=O)N(c2ccc(Cl)cc2)C(N(O)C(=O)Nc2ccc(Cl)cc2)C1(C)C (stereo unspecified)	.	i	-4.0%
Cc1ccc(N(CN2CCCC2=O)C(=O)c2ccc(OC(C)C)cc2)cc1	-0.43	i	2.8%
CCOc1ccc(N2CC(C(=O)Nc3cccc(C)c3C)CC2=O)cc1 (stereo unspecified)	-0.88	i	-3.4%
O=C(O)c1ccc(F)c(S(=O)(=O)Nc2ccccc2)c1	-0.71	i	-3.5%
COc1ccc(C2c3c(oc4ccc(F)cc4c3=O)C(=O)N2CCN2CCOCC2)cc1OC (stereo unspecified)	0.4	i	0.4%
CC(=O)N1c2ccc(S(=O)(=O)CCC(=O)O)cc2CC1C (stereo unspecified)	0.05	i	-1.0%
CCOc1c(OC)cc(C2C(C#N)=C(N)Oc3n[nH]c(-c4ccncc4)c32)cc1OC (stereo unspecified)	0.34	i	-0.4%
CCC12CN3CC(CC)(CN(C1)C31C(=O)N(C)c3ccc(C)cc31)C2=O (stereo unspecified)	-0.06	i	1.2%
COc1ccc(C(=O)c2ccc(OC)c(OC)c2)cc1OC	-0.75	i	-5.3%
COc1cccc(OCc2nnc(SCC(=O)NCc3ccco3)n2CCc2ccccc2)c1	-0.93	i	6.3%
COC(=O)CSC1=C(C#N)C(c2ccccc2OC)C(C(=O)OC)C(=O)N1 (stereo unspecified)	-0.38	i	-2.6%
Cc1c(C(=O)N2CCCCC2)sc(NC(=O)C(C)C)c1C#N	-0.92	i	-3.1%
CNC(=O)C1C2C=CC3(O2)C1C(=O)N(C1CC1)C3C(=O)NCc1ccc(OC)cc1 (stereo unspecified)	0.21	i	1.3%
CCOC(=O)C1=NN(c2ccc(F)cc2)C2=NC(C)=C(C(=O)OC)C(c3cccs3)N12 (stereo unspecified)	.	i	-1.6%

Rewritten field by field: part of the list above
COc1ccc(C(=O)c2ccc(OC)c(OC)c2)cc1OC
  WNV NS2B-NS3 inh = -0.75
  MT1-MMP reporter = i
  Hsc70 ATP site = -5.3%
COc1cccc(OCc2nnc(SCC(=O)NCc3ccco3)n2CCc2ccccc2)c1
  WNV NS2B-NS3 inh = -0.93
  MT1-MMP reporter = i
  Hsc70 ATP site = 6.3%
COC(=O)CSC1=C(C#N)C(c2ccccc2OC)C(C(=O)OC)C(=O)N1 (stereo unspecified)
  WNV NS2B-NS3 inh = -0.38
  MT1-MMP reporter = i
  Hsc70 ATP site = -2.6%
Cc1c(C(=O)N2CCCCC2)sc(NC(=O)C(C)C)c1C#N
  WNV NS2B-NS3 inh = -0.92
  MT1-MMP reporter = i
  Hsc70 ATP site = -3.1%

Other structures
SMILES	WNV NS2B-NS3 inh	MT1-MMP reporter	Hsc70 ATP site
COc1ccc(C=NCC2COc3ccccc3O2)cc1OC (stereo unspecified)	.	i	-1.3%
CCCOc1ccc(C(=O)NCc2cccnc2)cc1	-0.74	i	2.5%
COC(=O)c1nn(-c2ccc3c(c2)OCO3)cc1O	.	i	-1.3%
CC1Cc2nc(SCC(=O)OCc3ccccc3)n(C)c(=O)c2S1 (stereo unspecified)	-0.03	i	3.7%
CCOC(=O)N1CCN(C(=O)c2ccc3c(=O)n(-c4ccc(OC)cc4)c(=S)[nH]c3c2)CC1	0.45	i	-1.3%
Cc1cc(C(=O)N2CCN(CCc3ccccc3)CC2)no1	0.32	i	2.1%
Cn1c2ccc(F)cc2c2ncn(Cc3ccco3)c(=O)c21	.	i	-0.7%
C/C(Cl)=C/Cn1c(SCCN2CCOCC2)nc2c1c(=O)[nH]c(=O)n2C	0.09	i	-8.7%
c1ccc(-c2n[nH]c(-c3ccccc3)c2-c2nc3ccccc3[nH]2)cc1	.	i	-1.2%
O=C(NCCc1ccccc1)C(c1ccncc1)N(C(=O)c1csnn1)C1CC1 (stereo unspecified)	.	i	2.0%
O=C(CCCN1C(=O)CSc2ncccc21)N1CCN(c2cccc(C(F)(F)F)c2)CC1	0.85	i	-6.0%
CCS(=O)(=O)Nc1c(C(=O)OC)[nH]c2ccccc12	-0.3	i	-6.2%
CCOc1ccc(Cn2nnc(C(=O)NCc3ccc(OC)cc3)c2N)cc1	-0.07	i	-1.3%
Cn1c(-c2ccccc2)cccc1=O	1.15	i	0.8%

These rows are one share of the data (hit frequency here may not be typical).
